# Source: PubChem
# WNV protease inh: WNV NS2B-NS3 proteinase inhibition; P06935; AID 577; 65,000 tested, 0.18% active; z-score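 (tested at a level between 10 and 100 µM)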; WNV NS2B-NS3 protease, fluorogenic substrate Ex360/Em465; hits give low values;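 active means z-score at -3 or under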;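 further: score is relative to mean and spread of the compound wells of a plate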
# Target sequence (P06935 1371-1501 limits assumed): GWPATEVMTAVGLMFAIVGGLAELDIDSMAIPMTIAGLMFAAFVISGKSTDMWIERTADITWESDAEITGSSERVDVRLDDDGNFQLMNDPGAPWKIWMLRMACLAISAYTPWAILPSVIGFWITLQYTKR
# Target sequence (P06935 1502-1679 limits assumed): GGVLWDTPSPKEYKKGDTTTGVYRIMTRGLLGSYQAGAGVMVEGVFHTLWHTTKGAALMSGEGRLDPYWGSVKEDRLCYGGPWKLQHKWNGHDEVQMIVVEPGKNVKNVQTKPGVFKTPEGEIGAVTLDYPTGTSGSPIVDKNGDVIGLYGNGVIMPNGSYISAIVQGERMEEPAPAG
# MT1-MMP reporter: inhibitors of MT1-MMP promoter transcription, cell-based, luciferase reporter, luminescence (AID 618). MT1-MMP promoter luciferase reporter cells, luminescence. calls from a first round at 10 µM; hits with a dose series show EC50 in µM. 87,000 tested, 0.62% active;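 active means over half of the reporter light lost at 10 µM or EC50 under 50 µM; inactive means the rest and hits that failed the dose series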;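 further: actives suppress MT1-MMP promoter-driven transcription so potencies describe inhibitors; HT1080 fibrosarcoma cells; overnight exposure; toxic or luciferase-blocking compounds were not removed from the actives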
# Hsc70 ATP site: Hsc70 inhibitors, probe displacement, primary screen, biochemical, fluorescence polarization (AID 568) | 83,000 tested, under 10 active | displacement, % at 20 µM, or IC50 in µM where a hit was titrated | Hsc70 fluorescence polarization, probe displacement; higher % means a stronger effect; strong numbers were not always called active;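 active means displacement above 50% without optical interference and an IC50 on retest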;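 further: ATPase domain with a fluorescein-tagged ATP probe; 0% = vehicle and 100% = excess ADP; read after one hour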
# * = called active by the depositor; i = inactive; · = not tested or not shown; + = active, no number.
SMILES,WNV protease inh,MT1-MMP reporter,Hsc70 ATP site
Cc1ccc2nc(N3CCC(C(=O)O)CC3)nc(-c3ccccc3)c2c1,0.64,i,-0.7%
Cc1csc(NC(=O)CSc2nnc(Cc3cccn3C)n2-c2ccc(F)cc2)n1,0.43,i,0.3%
CCOC(=O)N1CCC(NC(=O)c2cc3sccc3n2CC)CC1,-0.68,i,2.9%
COc1cc(NC(=O)c2ccco2)ccc1NC(=O)c1ccccc1Cl,0.1,i,-9.5%
Cc1cc(SCCC(=O)O)nc2c(C)cccc12,·,i,7.4%
COC(=O)C(C#N)c1nc2ccccc2nc1N1CCN(Cc2ccc3c(c2)OCO3)CC1 (stereo unspecified),-0.05,i,4.7%
CC(C)(C)OC(=O)N1CCC(C(N)=O)CC1,-0.44,i,5.2%
O=C(Nc1ccc(-c2nnc3n2CCCCC3)cc1)c1cnccn1,·,i,-0.3%
COc1ccc(C(=O)NCc2ccccn2)cc1,·,i,5.5%
Cn1c(=O)c2c(ncn2CC(O)CNc2ccc(Cl)cc2)n(C)c1=O (stereo unspecified),0.69,i,5.5%
O=C(NCCCNCc1ccccc1)c1ccccn1,-0.86,i,-0.7%
Cc1nc2nc(C)c(CCC(=O)NC(C)c3ccc4c(c3)OCCO4)c(C)n2n1 (stereo unspecified),0.23,i,2.7%
CCc1c(C)n2nc(C)cc2[nH]c1=O,0.08,i,1.0%
Cc1nnc(SCC(C)C)[nH]c1=O,-1.7,i,-3.7%
CCOC(=O)CSc1nc2sccc2c(=O)[nH]1,·,i,2.7%
CCS(=O)(=O)Nc1cc(-c2nc3cccnc3s2)ccc1C,-1.5,i,-0.3%
CCC(C)[C@@H](C(=O)Nc1ccc(OC)c(OC)c1)N1Cc2ccccc2C1=O (stereo partly specified),-0.68,i,-1.9%
NC1=NC2(CCCCC2)N(c2cccc(Cl)c2)C(N)=N1,·,i,5.3%
COc1cccc(-c2nn(C)c3sc(C(=O)NCc4ccc(C)cc4)cc23)c1,·,i,-4.7%
COc1ccc(-c2n[nH]c(=S)n2C2CCCCC2)cc1,0.26,i,7.8%

# Taken from above:
# COc1ccc(-c2n[nH]c(=S)n2C2CCCCC2)cc1 in WNV protease inh = 0.26
# COc1ccc(C(=O)NCc2ccccn2)cc1 in Hsc70 ATP site = 5.5%

# Grouped by structure: the compounds so far containing a COOH group (2)
SMILES,WNV protease inh,MT1-MMP reporter,Hsc70 ATP site
Cc1ccc2nc(N3CCC(C(=O)O)CC3)nc(-c3ccccc3)c2c1,0.64,i,-0.7%
Cc1cc(SCCC(=O)O)nc2c(C)cccc12,·,i,7.4%

# (further entries)
SMILES,WNV protease inh,MT1-MMP reporter,Hsc70 ATP site
COc1ccc(-c2nnc3ccc(SC)nn23)cc1,-2.1,i,0.6%
C=CCOc1ccc2nc(NC(=O)OC)[nH]c2c1,·,+,-1.3%
O=C(O)Cn1cc2c(n1)CCCCC2,-0.11,i,0.1%
CN=C1SC(CC(=O)Nc2sc(C)c(C)c2C(=O)OC)C(=O)N1C (stereo unspecified),0.28,i,-14%
CCOC(=O)CNC(=O)CSc1nnc(-c2cccc(C)c2)n1-c1ccc(OC)cc1,0.56,i,-4.6%
COc1ccc(S(=O)(=O)n2ccnc2)c2cccnc12,-0.58,i,-2.7%
COc1cc([C@H]2[C@@H]3CCCC[C@]3(O)CCN2CC(=O)Nc2ccc(C)cc2)ccc1O,0.94,i,-5.2%
Cc1cc(C)cc(NC(=O)CN2CCCN(S(=O)(=O)c3ccc(Br)s3)CC2)c1,·,i,-2.3%
COc1ccc(N(C(=O)c2cnccn2)C(C(=O)NC2CCCCC2)c2ccc(Cl)cc2)cc1 (stereo unspecified),·,i,3.4%
COc1cc(C(=O)N2CCCN(c3nc4cc(C)ccc4cc3C#N)CC2)cc(OC)c1OC,-0.41,i,-9.1%
CC(CC(C)C(=O)Nc1ccccc1C(C)(C)C)C(=O)O (stereo unspecified),·,i,-0.3%
O=C(c1cnn2ccccc12)N1CCCc2ccccc21,0.75,i,1.4%
COc1cccc(-c2noc(-c3cccnc3)n2)c1,-0.15,i,2.2%
COC(=O)CCC(=O)Nc1ccc(NC(=O)CCC(=O)OC)cc1,-0.96,i,0.8%
O=c1oc2ccccc2c2c1ncn2C1CCCCC1,-0.66,i,-4.1%
N#CCSc1nnc(N)s1,-0.08,i,-0.1%
Cc1ccc2c(C)nc(Nc3nc(CSc4nnc(C)s4)cc(=O)[nH]3)nc2c1,·,i,-5.7%
CCCNC(=O)c1cc(-c2ccco2)on1,0.37,i,-1.5%
NCCN1CCN(CCN)CC1,-0.07,i,-2.8%
CCOC(=O)N1CCN(C(=O)Cc2ccc(Cl)cc2)CC1,-0.23,i,4.8%
CCCc1oc(C(=O)O)cc1CN1CCCC1,·,i,-0.1%
CCC1Sc2ccccc2N(CC(=O)NC2CCCC2)C1=O (stereo unspecified),-0.71,i,-3.0%
O=S(Cc1ccc(Cl)cc1)CC(O)COc1ccc(Cl)cc1 (stereo unspecified),0.41,i,4.9%
O=C1c2ccccc2C(=O)N1CCN1CCc2ccccc21,0.13,i,-4.6%
Cn1c(=O)c2c(nc(SCC(=O)Nc3ccc(N4CCOCC4)c(Cl)c3)n2C)n(C)c1=O,0.24,i,-2.7%
Cc1cccc(N2C(=O)CC(N3CCN(C(=O)c4ccccc4)CC3)C2=O)c1 (stereo unspecified),1.6,i,-0.4%
Cn1ccnc1Sc1nc2ccccc2nc1NS(=O)(=O)c1ccccc1,-1.3,i,28%
COc1ccc(OC)c(NC(=O)COC(=O)c2ccc(-n3cnnn3)cc2)c1,0.35,i,0.5%
COc1ccccc1N1CCN(Cc2ccc(Br)o2)CC1,-0.67,i,-1.7%
O=C(CSc1nnc(-c2ccccc2O)o1)Oc1ccc(Br)cc1,·,i,4.5%
O=C(C1CC1)N1CCC(c2nc(-c3ccc(S(=O)(=O)N4CCCC4)cc3)no2)CC1,·,i,1.8%
C=CCn1cc(C(=O)N2CCN(C)CC2)c(=O)c2cc(S(=O)(=O)N3CCCC3)ccc21,1.4,i,6.6%
CCOC(=O)c1oc2ccccc2c1CSc1nnnn1-c1ccc(C)cc1,0.43,i,2.2%
C=C(C)CSc1nnc(-c2cc(OC)c(OC)c(OC)c2)n1N,1.5,i,-12%
COc1cc(C)nc(OCCNC(=O)COc2ccc(Cl)cc2C)n1,-0.56,i,-3.8%
CNC(=O)NCCN1CCCC1=O,1.3,i,-4.1%
O=C(COc1ccccc1)Nc1ccc(S(=O)(=O)N2CCCCCC2)cc1,·,i,5.2%
C=CCOC(=O)CCP(=O)(CCC(=O)OCC=C)c1ccccc1,-1.1,i,7.0%
O=C(Nc1cccc(C(=O)N2CCOCC2)c1)NC1CCCCC1,-0.34,i,-2.5%
CC1(C(=O)N(c2ccccc2)C(C(=O)NC2CCCC2)c2ccccn2)CC(=O)N=C2C=CC=CN21 (stereo unspecified),-0.72,i,-4.7%
Cc1nc2nc(C)c(CCC(=O)NCCCN3CCN(c4cccc(Cl)c4)CC3)c(C)n2n1,1.4,i,-1.3%
COc1ccc2c(c1OC)C(=O)OC2c1c(O)nc(SC)n(-c2ccccc2)c1=O (stereo unspecified),0.87,i,-0.1%
Cc1ccc(N2CCN(S(=O)(=O)c3ccc4c(c3)n(C)c(=O)c(=O)n4C)CC2C)cc1 (stereo unspecified),·,i,2.4%
O=C(NN=C1CCCCCCC1)c1ccccn1,·,i,-1.7%
COCCn1c(-c2ccc(OC)c(OC)c2)nc2ccccc21,-0.19,i,-0.4%
CC(C)c1nnc(NC(=O)c2cnccn2)s1,0.11,i,5.6%
Cc1ccc(S(=O)(=O)c2c(N)n(NC(=O)c3ccco3)c3nc4ccccc4nc23)cc1,1.1,i,-2.0%
CCOc1ccc(S(=O)(=O)Nc2nc3ccccc3nc2N2CCN(C)CC2)cc1,-0.69,i,-4.6%
CC(=O)Nc1ccc(C(=O)CSc2ncn(-c3ccccc3)n2)cc1,0.43,i,-1.6%
CCOC(=O)N1CCN(C(=O)C2CCCN(Cc3nc(-c4ccc(Cl)cc4)oc3C)C2)CC1 (stereo unspecified),0.2,i,0.9%
CC(C)(C)c1nn(-c2ccccc2)c2[nH]c(=O)c(CNCc3ccc4c(c3)OCO4)cc12,·,i,5.5%
CCOC(=O)c1ccc2[nH]c3c(c2c1)CCCC3C(=O)OCC (stereo unspecified),·,i,3.0%
COc1cccc(N2CCN(C3OC(=O)c4ccccc43)CC2)c1 (stereo unspecified),0.28,i,0.2%
CN1CCN(c2nc3c(c(=O)[nH]c(=O)n3C)n2CCOc2ccccc2)CC1,-1,i,-3.7%
CC(=O)Nc1nonc1NC(=O)CSC1=NCCS1,-0.29,i,-0.4%
O=C(Nc1ccccc1C(=O)OCc1nnc(-c2ccccc2)o1)c1ccco1,-1,i,7.6%
CCOCCCNc1ccc(-c2ccccc2)nn1,-0.55,i,4.4%
COc1ccc(-n2c(SCC(=O)Nc3cc(C)on3)nc3c(c2=O)SCC3)cc1,-0.22,i,5.1%
COC(=O)CSc1nc(C)cc(Oc2ccccc2)n1,0.48,i,-1.3%
Cc1ccc(CC2CC(=O)N(c3ccc4c(c3)OCCO4)C2=O)cc1 (stereo unspecified),-0.08,i,-2.6%

# Other structures:
SMILES,WNV protease inh,MT1-MMP reporter,Hsc70 ATP site
CCOc1ccc(NC(=O)CCn2cccc2)cc1,2.3,i,3.8%
O=C(O)c1nsc(Cl)c1Cl,-0.89,i,-4.1%
CCOC(=O)C(NC(=O)Nc1ccccc1)(OCC)C(F)(F)F (stereo unspecified),0.62,i,0.7%
COc1ccc(-c2c[n+]3c4n2CCCCC4=C(c2ccccc2)C3)cc1,·,i,-7.3%
COC(=O)CC1Nc2ccccc2SC1=O (stereo unspecified),-0.36,i,-12%
CCN(CC)S(=O)(=O)c1ccc(C(=O)OC2CCCCC2CN(C)C)cc1 (stereo unspecified),-0.63,i,1.2%
Nc1ncc(-c2ccccc2)n1CC1CCCO1 (stereo unspecified),-1.7,i,4.0%
CCC/C(=N/Nc1ccc(Cl)cc1)c1cnnc(-c2ccccc2)n1,·,i,-2.2%
O=c1c2cc(N3CCOCC3)ccc2[nH]c(=S)n1Cc1ccccn1,-0.82,i,6.4%
CN=c1scc(C)n1/N=C/c1ccc(O)cc1,-0.14,i,-2.6%
CCCCN(CCCC)C(=O)c1ccccc1NC(=O)CN1C(=O)c2ccccc2C1=O,·,i,-1.3%
CC(C)C(c1nnnn1Cc1ccco1)N1CCN(C2CCCC2)CC1 (stereo unspecified),0.56,i,-3.2%
CCN1C(=O)/C(=C2/Sc3ccccc3N2CCCS(=O)(=O)O)SC1=S,0.69,i,-13%
Cc1csc2nc3ccccc3c(=O)n12,-0.13,i,-6.8%
CCOC(=O)c1ccccc1NC(=O)CSc1cccc[n+]1[O-],·,i,-3.1%
CC(=O)c1cccc(NS(=O)(=O)N2CCCCC2)c1,-0.53,i,2.5%
O=C(Oc1ccccc1C(=O)N1CCOCC1)c1ccccc1,0.6,i,-7.3%
CCOC(=O)c1c(C)[nH]c(C(=O)COC(=O)c2ccncc2)c1C,0.1,i,-3.7%
Nn1c(Nc2ccccc2)nc2ccccc21,1.5,i,5.0%
CC1CCN(C(=O)C2CCC(CNS(=O)(=O)c3cccc4cccnc34)CC2)CC1 (stereo unspecified),-0.21,i,1.2%
O=C(Nc1nncs1)Oc1ccccc1,1.4,i,3.7%
C(#CCN1CCOCC1)COC(c1ccccc1)c1ccccc1,·,i,-5.6%
CC(NC(=O)N(Cc1ccccc1)Cc1ccc2c(c1)OCO2)(C(F)(F)F)C(F)(F)F,·,i,-3.0%
COc1ccc(/C=N/n2cc(-c3ccccc3)nc2N)cc1,-0.69,i,-8.4%
Cc1cc2sc(C(=O)O)c(C)c2s1,·,i,-0.6%
CC1Cc2nc(SCC(=O)NCc3ccco3)n(-c3ccccc3)c(=O)c2S1 (stereo unspecified),-0.25,i,-3.3%
CC(C(=O)NCC1CCCO1)N(C(=O)c1snc(C(N)=O)c1N)c1cccc(F)c1 (stereo unspecified),1.6,i,-8.9%
c1c2c(cc3sc(N4CCCCC4)nc13)OCO2,-1.2,+,-1.2%
COc1ccccc1NC(=O)COc1ccc(C(=O)OCC(=O)N2CCCC2=O)cc1OC,-0.19,i,4.6%
O=C1c2ccccc2C(Nc2ccc(F)c(Cl)c2)N1c1ccccn1 (stereo unspecified),0.04,i,1.0%
O=C(CN1CCN(Cc2ccccc2)CC1)c1c[nH]c2ccccc12,0.28,i,-5.8%
CCCC(C)NC(=O)C1CCN(S(=O)(=O)c2ccccc2)CC1 (stereo unspecified),·,i,-1.1%
O=C(CSc1nnc(-c2ccccc2Cl)o1)Nc1ccc2c(c1)OCCO2,·,i,4.2%

# In a second layout: results already given.
canonical_smiles	WNV protease inh	MT1-MMP reporter	Hsc70 ATP site
CC(NC(=O)N(Cc1ccccc1)Cc1ccc2c(c1)OCO2)(C(F)(F)F)C(F)(F)F	·	i	-3.0%
COc1ccc(/C=N/n2cc(-c3ccccc3)nc2N)cc1	-0.69	i	-8.4%
Cc1cc2sc(C(=O)O)c(C)c2s1	·	i	-0.6%
CC1Cc2nc(SCC(=O)NCc3ccco3)n(-c3ccccc3)c(=O)c2S1 (stereo unspecified)	-0.25	i	-3.3%
CC(C(=O)NCC1CCCO1)N(C(=O)c1snc(C(N)=O)c1N)c1cccc(F)c1 (stereo unspecified)	1.6	i	-8.9%
c1c2c(cc3sc(N4CCCCC4)nc13)OCO2	-1.2	+	-1.2%

# Only part of the results is shown; count on the stated rates, not on these rows.
